Screens as filed in PubChem.
Mtb growth – Confirmatory growth inhibition assay against Mycobacterium tuberculosis H37Rv, potency (AID 1949); most inactive calls were filed without a number and no value below 0 was filed; inhibition, % at 10 µg/mL, or IC50 in µg/mL where a hit was titrated; 1.6% of 100,000 active;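 active means confirmed in a dose series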;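 further: bacteria grown 7 days with compound before Alamar blue readout; 0% = untreated bacteria and 100% = reference antibiotic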
The depositor's hits bear a star; i = inactive. Not all compounds are listed; rates above refer to the full screens.

mol	Mtb growth
O=S(=O)(NCCc1ccccc1)c1ccc(F)c(Cl)c1	3.6%
COC(=O)C1=C(C)N(C)C(=O)NC1c1ccc(O)c(Cl)c1 (centres undefined)	i
CN(C)CCCNC(=S)Nc1cccc(Cl)c1Cl	i
CN(c1ccccc1C(=O)NCc1ccccn1)S(C)(=O)=O	i
Cc1ccc2[nH]cc(CCNC(=O)c3cc(Cl)ccc3Cl)c2c1	0.8%
COc1ccc(/C=C(/C#N)S(=O)(=O)c2ccccc2)cc1Cn1nc(C)cc1C	1.4%
Cc1ccc(S(=O)(=O)N(CC(=O)NC2CC3CCC2C3)c2cc(C)cc(C)c2)cc1 (centres undefined)	i
Cc1ccc(SCCNC(=O)c2ccc(Cl)c(S(=O)(=O)N3CCOCC3)c2)cc1	3.4%
O=C(CNC(=O)C1CCCCC1)NNC(=O)c1ccc(-c2ccccc2)cc1	i
Cc1ccc(-c2csc3nnc(SCC(=O)Nc4ccc5c(c4)OCCO5)n23)cc1	i
O=Cc1ccc(Sc2ncccn2)c([N+](=O)[O-])c1	i
COc1c(C)cc(Br)cc1C(=O)Nc1ccccc1-c1nc2ccccc2s1	1.3%
CCN(CC)C(=O)c1sc(NC(=S)Nc2ccc(OC(F)F)c(Cl)c2)c(C(=O)OC)c1C	i
COC(=O)c1cccc(NC(=O)c2ccccc2C)c1	9.7%
Cc1ccc(OC(=O)C(C)(C)C)cc1C	i
CCOC(=O)c1c(NC(=O)c2cc(Br)ccc2OC)sc2c1CC(C)(C)OC2	i
COc1ccc(-n2c(=O)c3c4c(sc3n3c(C)nnc23)COC(C(C)C)C4)cc1 (centres undefined)	i
CC1(C)Cc2ccccc2-c2c1c(=O)n(Cc1ccccc1)c1n[nH]c(=S)n21	7.8%
O=C(COc1ccccc1Cl)Nc1cccc(Oc2ccc3c(c2)C(=O)NC3=O)c1	i
COc1ccc(OCC(=O)Nc2cccc(Cl)c2)cc1	2.78µg/mL*
Cc1cc(C)c2nc(C)cc(NCCc3ccccc3)c2c1	0.7%
O=C(O)c1ccccc1NS(=O)(=O)c1cccc(C(F)(F)F)c1	i
CCOC(=O)c1c(C#N)c(SCC(=O)Nc2ccc(OC)cc2)nc2c1CN(CC)CC2	i
Cc1c(OCC(=O)N(C)C)ccc2c3c(c(=O)oc12)CCCC3	i
Cc1ccc(C)c(Nc2ncnc(N)c2[N+](=O)[O-])c1	0.4%
COc1ccc(-c2cc(C(F)(F)F)n3nc(C(=O)NCCCn4ccnc4)cc3n2)cc1	i
CN1CC23C=CC(O2)C(C(=O)O)C3C1=O (centres undefined)	i
COc1ccccc1NC(=O)CSc1cc(C)c2ccccc2n1	2.3%
NC(=NC1CCCCC1)c1ccc([N+](=O)[O-])cc1	i
CS(=O)(=O)N(CC(=O)Nc1ccccc1)c1ccccc1F	i
Cn1c(=O)n(C)c2cc(NC(=O)c3cccs3)ccc21	i
CCc1ccccc1OCC(=O)Oc1ccc(C)cc1Br	i
COc1cc2[nH]c(=S)n(NC(=O)C(c3ccccc3)c3ccccc3)c(=O)c2cc1OC	i
COc1ccc(C)cc1S(=O)(=O)Nc1ccc(Cl)cc1C	i
COc1ccc(CNC(=O)CCc2ccccc2O)cc1	i
CN(C1CCCCC1)S(=O)(=O)C1CCS(=O)(=O)C1 (centres undefined)	i
CC1CCc2nc(NC(=O)CSc3nc4ccccc4o3)sc2C1 (centres undefined)	8.2%
CCOC(=O)c1c(NC(=O)c2ccccc2C)sc(C(=O)OC)c1C	i
Cc1c(Cl)cccc1NC(=S)N1CCN(C(=O)C2CCCO2)CC1 (centres undefined)	i
S=C(NCc1ccccc1)Nc1ccc(Cl)cc1	i
COc1ccc(NC(=O)c2ccco2)cc1NC(=O)c1ccc(-c2cccc(Cl)c2)o1	i
Cc1csc(NC(=O)c2ccc(C(F)(F)F)cc2)n1	33.4%
O=C(O)c1ccc(NCc2ccc(F)cc2)cc1	i
C=C(C)CSc1nnc2n(-c3ccc(OC)cc3)c(=O)c3c4c(sc3n12)COC(C)(C)C4	i
O=C(Nc1ccccc1)c1c(Br)sc(-c2ccccc2)c1-c1ccccc1	i
Cc1cc(Br)cc(C)c1NC(=O)CSc1nnc(COc2ccccc2)n1C	i
Cc1[nH]c2c(Cl)cccc2c(=O)c1CN1CCCC1	5.3%
CC(C)(C)NC(=O)CSc1nc2ccc(NC(=O)CSc3nnc(N)s3)cc2s1	i
Cc1ccc(NC(=O)c2ccc(Br)cc2)cc1	i
CC(C)(C)N(Cc1ccccc1)C(=O)c1ccc(Br)o1	i

Structures listed so far containing an NH in an aromatic ring (four):
mol	Mtb growth
Cc1ccc2[nH]cc(CCNC(=O)c3cc(Cl)ccc3Cl)c2c1	0.8%
CC1(C)Cc2ccccc2-c2c1c(=O)n(Cc1ccccc1)c1n[nH]c(=S)n21	7.8%
COc1cc2[nH]c(=S)n(NC(=O)C(c3ccccc3)c3ccccc3)c(=O)c2cc1OC	i
Cc1[nH]c2c(Cl)cccc2c(=O)c1CN1CCCC1	5.3%

Additional entries:
mol	Mtb growth
CCn1c(SCC(=O)Nc2ccc(S(=O)(=O)Nc3nccc(C)n3)cc2)nnc1-c1ccccc1	i
O=C(COc1ccc(Br)cc1Cl)NC(=S)N1CCc2ccccc21	21.8%
CCOc1cc(CN2CCN(Cc3ccccn3)CC2)ccc1OC	i
CCCC(=O)Oc1ccc(C2CC(=O)Nc3ccc4ccccc4c32)cc1OC (centres undefined)	i
CCc1ccccc1OCCOc1cccc2cccnc12	11.6%
O=C(CSc1nnc(-c2ccccc2)n1-c1ccccc1)Nc1c(F)cc(F)cc1Br	i
CC(=O)Nc1nnc(SCC(=O)Nc2ccccc2F)s1	i
O=C(Nc1ccc(-c2nc3ccccc3c(=O)o2)cc1)C1CCCCC1	23.9µg/mL*
O=C(Nc1cnc2ccccn2c1=O)c1ccccc1	i
COC(=O)c1ccc(C(=O)OC)c(NC(=O)c2ccc(CN3CCc4ccccc4C3)cc2)c1	i

Compounds shown so far with a cyano group:
mol	Mtb growth
COc1ccc(/C=C(/C#N)S(=O)(=O)c2ccccc2)cc1Cn1nc(C)cc1C	1.4%
CCOC(=O)c1c(C#N)c(SCC(=O)Nc2ccc(OC)cc2)nc2c1CN(CC)CC2	i

Other records:
mol	Mtb growth
CCOc1ccc(NC(=O)NNC(=O)Cc2ccc(Br)cc2)cc1	i
Nc1cc(C(=O)O)ccc1NCc1ccccc1	i
CS(=O)(=O)N(CC(=O)N1CCN(C(c2ccccc2)c2ccccc2)CC1)Cc1ccccc1	i
COc1ccc(C(=O)NC2CCCCC2)cc1Br	i
C=CCn1c(Cc2ccccc2)nnc1SCC(=O)Nc1cccc(SC)c1	i
CC(=O)Nc1sc2c(c1C(N)=O)CCCCCC2	i
CCOC(=O)C1=CN(Cc2ccc(F)cc2)C=C(C(=O)OCC)C1c1cccc([N+](=O)[O-])c1	1.8%
COc1ccc(Cl)cc1C(=O)Nc1sc2c(c1C(N)=O)CCCCC2	i
COc1ccc(N2CCN(S(=O)(=O)c3ccc(Cl)c(Cl)c3)CC2)c([N+](=O)[O-])c1	8.8%
CCC(=O)Nc1cccc(NC(=O)c2cc(Cl)c(OC)c(Cl)c2)c1	22.3%
COc1cc(CN2CCN(C3CCCC(C)C3)CC2)cc(OC)c1O (centres undefined)	i
CCC(C)c1ccc2oc(-c3ccc(N)cc3)nc2c1 (centres undefined)	46.7%
CCCOc1ccc(C(=O)Nc2cc3nn(-c4ccccc4)nc3cc2Cl)cc1	i
COc1ccc(N(C(C)C(=O)N2CCN(Cc3ccccc3)CC2)S(C)(=O)=O)cc1 (centres undefined)	i
CCCCC(=O)Nc1ccc(-c2nc3ccc(NC(=O)CCCC)cc3[nH]2)cc1	i
CS(=O)(=O)N(CC(=O)Nc1ccc(F)cc1)c1ccccc1	i
N/C(=N\OC(=O)CCCN1C(=O)c2ccccc2C1=O)c1ccc([N+](=O)[O-])cc1	i
COc1ccc(OC)c(NC(=O)CC(NCCC2=CCCCC2)C(=O)O)c1 (centres undefined)	i
O=C(CC1COc2ccccc2O1)Nc1ccc(Br)cc1 (centres undefined)	11µg/mL*
Cc1c(SCC(=O)Nc2ccc(Br)cc2)c(=O)[nH]c2cc3c(cc12)OCO3	i
Cc1cccc(C(=O)Nc2nnc(SCC(=O)Nc3ccc(Br)cc3)s2)c1	i
O=C(Cn1c(=O)oc2ccccc21)Nc1nc(-c2ccc(Br)cc2)cs1	i
CC1CCCCN1S(=O)(=O)c1ccc(C(=O)Nc2ccccc2Br)cc1 (centres undefined)	i
CC(NCc1cccc(OCc2ccccc2)c1)C(O)c1ccccc1 (centres undefined)	5.53µg/mL*
COc1cc(Br)cc(-c2nc3ccccc3s2)c1O	i
CCn1c(SCc2nc3ccccc3c(=O)[nH]2)nnc1-c1cccnc1	i
CCN(CC)C(=O)N1CCN(S(=O)(=O)c2c(C)cc(C)cc2C)CC1	2.4%
O=C(Cc1c(F)cccc1Cl)Nc1nnc(CCc2ccccc2)s1	0.5%
O=C(Nc1ccccc1I)C1CCCO1 (centres undefined)	2.0%
CCCN(CCC)S(=O)(=O)c1ccc(NC(=O)c2cccc(C)c2[N+](=O)[O-])cc1	i
CCOc1cc(C(=O)Nc2ccc(Cl)cc2C(F)(F)F)cc(OCC)c1OCC	i
Cn1nnnc1SCC(=O)Nc1ccc(N2CCOCC2)c(Cl)c1	i
COCCNC(=O)C(=O)NCCN1CCNCC1	0.3%
Cc1ccc(/C(N)=N/OC(=O)c2cccc3ccccc23)cc1	32.2%
CC(=O)c1cccc(NC(=O)C(C)NS(=O)(=O)c2ccc(Br)cc2)c1 (centres undefined)	i
CCCOn1nnnc1-c1ccccc1	i
Cc1ccc(OCCNCc2ccccc2)c(C)c1	1.6%
O=C(CCCN1C(=O)c2ccccc2C1=O)Nc1cccc(C(F)(F)F)c1	i
CCCNC(=O)c1ccccc1NC(=O)COc1cc(C)cc(C)c1	i
CC1(C)Cc2c(sc3nc(SCC(=O)Nc4ccccn4)n(-c4ccccc4)c(=O)c23)CS1	i
CCC(=O)Nc1ccc(C(=O)Nc2cccc(C(=O)O)c2)cc1	i
CCOc1ccc(C(=O)NC2CC(C)(C)NC(C)(C)C2)cc1OCC	i
O=C(O)c1cccnc1Oc1ccccc1	i
O=C(/C=C/c1ccccc1)Nc1ccccc1CO	i
Cc1ccc(C(=O)O)cc1NC(=O)c1ccc(Br)cc1	i
CCOc1ccc(C(=O)Nc2sc3c(c2C(=O)OC)CCC3)cc1	i
O=C(Nc1cccc(C(=O)N2CCN(c3cccc(C(F)(F)F)c3)CC2)c1)c1ccccc1	30.8%
CC(=O)Nc1nnc(SCC(=O)Nc2ccc([N+](=O)[O-])cc2)s1	0.7%
O=C(NCCc1ccncc1)C12CC3CC(CC(C3)C1)C2	i
COC(=O)c1sc2cc(NC(=S)N3CC(C)OC(C)C3)ccc2c1Cl (centres undefined)	i

The list goes on.
mol	Mtb growth
CC1CN(CCOc2ccc(I)cc2)CC(C)O1 (centres undefined)	i
O=C1CCCc2c1cc(C(=O)Nc1ccc(Oc3ccccc3)cc1)c(=O)n2-c1ccccc1	i
CC1CCc2c(sc3ncn(CC(=O)Nc4ccccc4F)c(=O)c23)C1 (centres undefined)	i
CC1=C(C(=O)Nc2ccccc2C(F)(F)F)C(c2sccc2C)C2=C(CC(C)(C)CC2=O)N1 (centres undefined)	0.7%
COc1ccc(C(=O)NCCc2cc(OC)c(OC)cc2Br)cc1OC	i
N#Cc1cc2c(nc1SCC(O)CS(=O)(=O)Cc1ccccc1)CCCC2 (centres undefined)	i
O=C(c1ccccc1Oc1ccc(C(F)(F)F)cc1[N+](=O)[O-])N1CCOCC1	0.1%
CC(NS(=O)(=O)c1ccc(Cl)cc1)C(=O)NCCC1=CCCCC1 (centres undefined)	i
CSc1nsc(SC)c1NC(=O)OC1CCCCC1	i
CCNC(=O)CC1C(=O)N(Cc2ccccc2)C(=S)N1NC(=O)c1ccc(Br)cc1 (centres undefined)	i
CCOC(=O)N1CCN(C(=O)COc2ccc(S(=O)(=O)NCC(C)C)cc2Cl)CC1	i
Cc1cc(C(=O)Nc2cccc(C(=O)NCc3ccccc3)c2)cs1	0.1%
CCN(CC)C(=O)COc1ccc(Cl)cc1Br	i
CCOC(=O)c1ccc(NC(=S)Nc2cccc([N+](=O)[O-])c2)cc1	0.23µg/mL*
CC(=O)Nc1ccc(NC(=O)c2ccc([N+](=O)[O-])cc2Cl)cc1	i
Cc1ccc(N2CC(C(=O)Nc3ccccc3C(C)C)CC2=O)cc1C (centres undefined)	i
COc1ccc(N2C(=O)CC(SCC(=O)Nc3ccc(C)cc3)C2=O)cc1 (centres undefined)	i
N#CCCn1cc(C(=O)Nc2nccs2)c(-c2cccs2)n1	1.6%
O=C(CSc1nnc(-c2ccncc2)n1-c1ccccc1)Nc1ccc(Br)cc1	i
CN1CCN(S(=O)(=O)c2ccc(NC(=O)c3cccs3)cc2)CC1	i
O=C1c2ccccc2C(=O)N1CCOc1ccccc1F	1.4%
CCCCN(C)CCCOc1cccc2ccccc12	4.9%
Cc1cccnc1NC(=O)Nc1ccccc1Cl	i
COc1cc(Br)c(C=O)cc1OC	i
Cc1c(CC(=O)O)c(=O)oc2cc(OCc3ccc(F)cc3Cl)ccc12	i
CCC(C)c1ccccc1OCC(=O)Nc1ccc(O)cc1C(=O)O (centres undefined)	i
Cc1cc(C(=O)Oc2ccc3c(-c4ccccc4)cc(=O)oc3c2C)ccc1[N+](=O)[O-]	i
